Vaccinia stage = Vaccinia orthopox stage-specific inhibition; Vaccinia-infected cells, mCherry/Venus stage reporter fluorescence; active compounds read low; some inactives read as strong as hits; actives 0.01% (n = 89,000); activity change (mCherry), % (test concentration not listed);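 active means mCherry past -33% and 40 or more points under the early reporter, replicates agreeing; inconclusive means past -33% without that gap or agreement; tested in A549 cells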;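 further: scaled between vehicle wells and reference inhibitor wells; 23 nL library stock went into each well; one replicate is shown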
Vaccinia stage Venus = recorded beside Vaccinia stage, whose call it bears; activity change (Venus), %; measured here: Venus reporter, other viral stage;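 negative = less Venus signal; first of two replicates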
An asterisk follows results filed as active; & = joins results of further samples. These rows are one share of the data; the hit share may differ from the screen's.

How did C[C@@H]1CN([C@@H](C)CO)C(=O)Cc2cc(NC(=O)NC3CCCCC3)ccc2O[C@@H]1CN(C)C(=O)Nc1ccc2c(c1)OCO2 do in these assays?
Vaccinia stage: 14; Vaccinia stage Venus: 10

Results for C[C@@H]1CCCCO[C@H](CN(C)C)[C@@H](C)CN([C@@H](C)CO)C(=O)c2cc(NC(=O)Nc3ccc(F)cc3)ccc2O1 ?
Vaccinia stage: -2; Vaccinia stage Venus: -2

How did COc1ccc(S(=O)(=O)N2C[C@@H](O)COC[C@@H]3O[C@@H](CC(=O)N[C@H]4CCN(Cc5ccccc5)C4)CC[C@H]32)cc1 do in these assays?
Vaccinia stage: -28; Vaccinia stage Venus: -11

How did CO[C@H]1CN(C)C(=O)c2cc(NC(=O)CC(F)(F)F)ccc2OC[C@H](C)N(C(=O)C2CCCCC2)C[C@@H]1C do in these assays?
Vaccinia stage: -2; Vaccinia stage Venus: 14

How did CCCC#Cc1ccc2c(c1)O[C@@H](CN(C)C(=O)CC)[C@@H](C)CN([C@@H](C)CO)S2(=O)=O do in these assays?
Vaccinia stage: -6; Vaccinia stage Venus: 0

How did C[C@@H]1CCCCO[C@H](CN(C)Cc2ccc(Cl)c(Cl)c2)[C@H](C)CN([C@@H](C)CO)C(=O)c2cc(NS(=O)(=O)c3ccccc3)ccc2O1 do in these assays?
Vaccinia stage: inconclusive

Results for C[C@@H]1CN([C@@H](C)CO)C(=O)c2cccc(NC(=O)Nc3ccc(F)cc3)c2O[C@H]1CN(C)Cc1ccc(Oc2ccccc2)cc1 ?
Vaccinia stage: -19; Vaccinia stage Venus: -14

Results for C[C@H](CO)N1C[C@H](C)[C@H](CN(C)C(=O)CN(C)C)Oc2ncc(-c3ccc(C#N)cc3)cc2C1=O ?
Vaccinia stage: 32; Vaccinia stage Venus: 23

What do the screens show for `C[C@H]1CN([C@@H](C)CO)C(=O)c2cc(C3=CCCCC3)cnc2O[C@H]1CN(C)Cc1ccc(C(=O)O)cc1`?
Vaccinia stage: 17; Vaccinia stage Venus: 16

How did C/C=C/c1ccc([C@@H]2[C@H](CO)N(C(=O)C3CC3)C23CN(S(=O)(=O)CC)C3)cc1 do in these assays?
Vaccinia stage: 0; Vaccinia stage Venus: 13

What do the screens show for `CN1CCCCN2[C@H](CO)[C@@H](c3ccc(-c4ccccc4)cc3)[C@@H]2C1`?
Vaccinia stage: -5; Vaccinia stage Venus: -5

Results for CC(C)NC(=O)Nc1ccc2c(c1)C(=O)N([C@H](C)CO)C[C@@H](C)[C@H](CN(C)Cc1ccc(C(=O)O)cc1)O2 ?
Vaccinia stage: 5; Vaccinia stage Venus: 11

Results for C[C@H](CO)N1C[C@H](C)[C@H](CN(C)S(=O)(=O)c2ccc(F)cc2)Oc2c(NS(=O)(=O)c3cn(C)cn3)cccc2C1=O ?
Vaccinia stage: -2; Vaccinia stage Venus: -7

Results for O=C(C[C@H]1C=C[C@H](NC(=O)Nc2ccc3c(c2)OCO3)[C@@H](CO)O1)NCc1ccc2c(c1)OCO2 ?
Vaccinia stage: 10; Vaccinia stage Venus: 6

How did C[C@@H]1CCCCO[C@H](CN(C)C(=O)Nc2ccc3c(c2)OCO3)[C@H](C)CN([C@@H](C)CO)C(=O)c2cc(NC(=O)c3ccccc3)ccc2O1 do in these assays?
Vaccinia stage: inconclusive

Results for Cn1cnc(S(=O)(=O)NC[C@H]2CC[C@H]3[C@H](CN3Cc3nccs3)O2)c1 ?
Vaccinia stage: 0; Vaccinia stage Venus: 16

Results for CCCC#Cc1ccc2c(c1)O[C@@H](CN(C)C(=O)c1ccccn1)[C@@H](C)CN([C@H](C)CO)S2(=O)=O ?
Vaccinia stage: -13; Vaccinia stage Venus: -15

What do the screens show for `C[C@H]1CN([C@@H](C)CO)S(=O)(=O)c2ccc(C3=CCCCC3)cc2O[C@H]1CN(C)C(=O)c1ccncc1`?
Vaccinia stage: -11; Vaccinia stage Venus: -6

Results for C[C@@H]1CN([C@H](C)CO)C(=O)c2cccc(NC(=O)Nc3ccccc3)c2O[C@H]1CN(C)C(=O)Nc1ccccc1 ?
Vaccinia stage: 7; Vaccinia stage Venus: 10

What do the screens show for `C[C@@H]1CN([C@@H](C)CO)C(=O)c2cc(-c3cncnc3)cnc2O[C@@H]1CN(C)Cc1ccncc1`?
Vaccinia stage: 9; Vaccinia stage Venus: 5

Some of these compounds in order of molecular weight, descending.
Results for C[C@@H]1CN([C@H](C)CO)C(=O)c2cccc(NC(=O)Nc3ccccc3)c2O[C@H]1CN(C)C(=O)Nc1ccccc1 ?
Vaccinia stage: 7; Vaccinia stage Venus: 10

What do the screens show for `C[C@H]1CN([C@@H](C)CO)S(=O)(=O)c2ccc(C3=CCCCC3)cc2O[C@H]1CN(C)C(=O)c1ccncc1`?
Vaccinia stage: -11; Vaccinia stage Venus: -6

Results for O=C(C[C@H]1C=C[C@H](NC(=O)Nc2ccc3c(c2)OCO3)[C@@H](CO)O1)NCc1ccc2c(c1)OCO2 ?
Vaccinia stage: 10; Vaccinia stage Venus: 6

Back to the main list; the 2 compounds before the break are reprinted first.
Results for C[C@@H]1CN([C@H](C)CO)C(=O)c2cccc(NC(=O)Nc3ccccc3)c2O[C@H]1CN(C)C(=O)Nc1ccccc1 ?
Vaccinia stage: 7; Vaccinia stage Venus: 10

What do the screens show for `C[C@@H]1CN([C@@H](C)CO)C(=O)c2cc(-c3cncnc3)cnc2O[C@@H]1CN(C)Cc1ccncc1`?
Vaccinia stage: 9; Vaccinia stage Venus: 5

Results for C[C@H](CO)N1C[C@H](C)[C@@H](CN(C)C(=O)CN(C)C)Oc2ncc(-c3ccc(C#N)cc3)cc2C1=O ?
Vaccinia stage: 15; Vaccinia stage Venus: 14

How did CO[C@H]1CN(C)C(=O)c2cc(NC(=O)Nc3ccccc3)ccc2OC[C@@H](C)NC[C@@H]1C do in these assays?
Vaccinia stage: -3; Vaccinia stage Venus: 0

How did N#C[C@@H]1[C@@H](c2ccc(/C=C/c3ccccc3)cc2)[C@@H](CO)N1C(=O)C1CCCCC1 do in these assays?
Vaccinia stage: 8; Vaccinia stage Venus: 11

What do the screens show for `O=C(C1CC1)N1CC[C@H]2[C@H](CO)Nc3ccc(Br)cc3[C@H]21`?
Vaccinia stage: -17; Vaccinia stage Venus: -14

Results for O=C(Cc1ccccc1)N[C@@H]1C=C[C@@H](CC(=O)N2CCCCC2)O[C@H]1CO ?
Vaccinia stage: 1; Vaccinia stage Venus: 10

How did CO[C@H]1CN(C)C(=O)c2cc(NC(=O)Nc3ccc(Cl)cc3)ccc2OC[C@@H](C)N(C)C[C@@H]1C do in these assays?
Vaccinia stage: inconclusive

How did CN(C)C(=O)c1ccc(-c2ccc(C3[C@@H]4CN(C(=O)C5CCOCC5)C[C@H]3N4)cc2)cc1 (stereo partly drawn) do in these assays?
Vaccinia stage: 15&-3; Vaccinia stage Venus: 6&-15

How did Cc1ccccc1S(=O)(=O)NCC[C@H]1CC[C@@H](NC(=O)C2CCCCC2)[C@@H](CO)O1 do in these assays?
Vaccinia stage: 6; Vaccinia stage Venus: 0

How did CCCNC(=O)[C@@H]1[C@@H](CO)[C@@H]2Cn3c(ccc(-c4ccccc4)c3=O)[C@H]1N2C(=O)Nc1ccccc1 do in these assays?
Vaccinia stage: 0; Vaccinia stage Venus: 5

Results for Cc1ccc(S(=O)(=O)N(C)C[C@@H]2Oc3c(NS(=O)(=O)c4ccc(Cl)cc4)cccc3C(=O)N([C@H](C)CO)C[C@@H]2C)cc1 ?
Vaccinia stage: inconclusive

What do the screens show for `C[C@@H]1CCCCO[C@H](CN(C)C(=O)NC2CCCCC2)[C@@H](C)CN([C@@H](C)CO)C(=O)c2cc(NC(=O)C3CCCCC3)ccc2O1`?
Vaccinia stage: inconclusive

What do the screens show for `COc1ccc(S(=O)(=O)Nc2ccc3c(c2)C(=O)N([C@H](C)CO)C[C@H](C)[C@@H](CN(C)C(=O)CCC(F)(F)F)OCCCC[C@H](C)O3)cc1`?
Vaccinia stage: -6; Vaccinia stage Venus: 2

What do the screens show for `CO[C@@H]1CN(C)C(=O)c2cc(NS(C)(=O)=O)ccc2OC[C@H](C)N(CC2CCCCC2)C[C@H]1C`?
Vaccinia stage: -7; Vaccinia stage Venus: -4

What do the screens show for `C[C@H](O)C#Cc1ccc2c(c1)O[C@H](CN(C)C)[C@H](C)CN([C@@H](C)CO)S2(=O)=O`?
Vaccinia stage: 37; Vaccinia stage Venus: 14

How did COCC(=O)N(C)C[C@H]1Oc2cc(-c3ccc(F)cc3)ccc2S(=O)(=O)N([C@H](C)CO)C[C@@H]1C do in these assays?
Vaccinia stage: -2; Vaccinia stage Venus: 5

What do the screens show for `Cc1ccccc1S(=O)(=O)N[C@@H]1CC[C@@H](CCNS(=O)(=O)c2cccc(F)c2)O[C@H]1CO`?
Vaccinia stage: -16; Vaccinia stage Venus: -17

How did C[C@@H]1CN([C@@H](C)CO)C(=O)c2cc(-c3ccccc3F)cnc2O[C@H]1CN(C)C(=O)C1CCCCC1 do in these assays?
Vaccinia stage: 13; Vaccinia stage Venus: 6

Results for C[C@@H]1CN([C@@H](C)CO)S(=O)(=O)c2ccc(C#CC3(O)CCCC3)cc2O[C@@H]1CN(C)C ?
Vaccinia stage: -5; Vaccinia stage Venus: -5

Results for COc1ccc(CN(C)C[C@H]2Oc3ccc(NC(=O)Nc4cccc5ccccc45)cc3CC(=O)N([C@H](C)CO)C[C@H]2C)cc1 ?
Vaccinia stage: -13; Vaccinia stage Venus: -3

How did CC(C)C#Cc1ccc2c(c1)O[C@@H](CN(C)S(C)(=O)=O)[C@H](C)CN([C@@H](C)CO)S2(=O)=O do in these assays?
Vaccinia stage: -4; Vaccinia stage Venus: -20

What do the screens show for `COCC#Cc1cnc2c(c1)C(=O)N([C@@H](C)CO)C[C@H](C)[C@@H](CN(C)C)O2`?
Vaccinia stage: 19; Vaccinia stage Venus: 15

What do the screens show for `Cc1noc(C)c1NC(=O)Nc1ccc2c(c1)C(=O)N([C@@H](C)CO)C[C@@H](C)[C@@H](CN(C)Cc1ccncc1)O2`?
Vaccinia stage: 16; Vaccinia stage Venus: 12

Results for COc1ccc(S(=O)(=O)N[C@H]2CC[C@H](CC(=O)N3CCN(c4ccccc4)CC3)O[C@@H]2CO)cc1 ?
Vaccinia stage: 3; Vaccinia stage Venus: 3

Results for CN1c2ccc(-c3cccc(C#N)c3)cc2[C@H]2[C@H](CCN2C(=O)C2CC2)[C@@H]1CO ?
Vaccinia stage: 3; Vaccinia stage Venus: 14

What do the screens show for `Cc1ccc(S(=O)(=O)N[C@@H]2CC[C@@H](CC(=O)NCCCN(C)C)O[C@H]2CO)cc1`?
Vaccinia stage: 14; Vaccinia stage Venus: 9

What do the screens show for `CO[C@@H]1CN(C)C(=O)c2cc(NC(=O)Nc3ccccc3)ccc2OC[C@@H](C)N(C(=O)CN(C)C)C[C@H]1C`?
Vaccinia stage: 0; Vaccinia stage Venus: -6

What do the screens show for `CCC(=O)N(C)C[C@@H]1Oc2cc(C#C[C@H](C)O)ccc2S(=O)(=O)N([C@H](C)CO)C[C@H]1C`?
Vaccinia stage: 13; Vaccinia stage Venus: 7

Results for Cc1noc(C)c1NC(=O)Nc1ccc2c(c1)C(=O)N([C@@H](C)CO)C[C@@H](C)[C@H](CN(C)C(=O)NC1CCCCC1)OCCCC[C@@H](C)O2 ?
Vaccinia stage: 16; Vaccinia stage Venus: 11

Results for CC(C)[C@H](C)NC(=O)N(C)C[C@@H]1OCc2ccccc2-c2ccccc2C(=O)N([C@H](C)CO)C[C@@H]1C ?
Vaccinia stage: 13; Vaccinia stage Venus: 10

Results for O=C(C[C@@H]1C=C[C@@H](NS(=O)(=O)c2ccc(F)cc2)[C@@H](CO)O1)N1CCN(c2ccccc2)CC1 ?
Vaccinia stage: -8; Vaccinia stage Venus: -2

What do the screens show for `CO[C@H]1CN(C)C(=O)c2cc(NC(=O)c3ccc(F)cc3)ccc2OC[C@@H](C)N(C(C)=O)C[C@H]1C`?
Vaccinia stage: 13; Vaccinia stage Venus: -2

From PubChem BioAssay
